Source: PubChem (ICCB-Longwood Screening Facility, Harvard Medical School)
MgrA DNA FP: modulators of Staphylococcus aureus MgrA DNA binding | fluorescence polarization | inhibition, %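 (about 10 µg/mL by stock and volumes)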 | 84,000 tested, 0.13% active;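 active means above 50% in either of two replicates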;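 further: 0% = protein plus DNA without compound and 100% = DNA alone without protein; higher means less MgrA bound to DNA so lower polarization; one replicate is shown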
Sa helicase inh: blocks Staphylococcus aureus DNA helicase; purified S. aureus helicase, fluorescence unwinding assay; about half of the hits fall short of the stated cut; inhibition, %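 (tested at about 80 µM)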; 120,000 tested, 0.05% active; AID 485395;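 active means both duplicates at 50% or more, or one of them with a favoured structure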;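 further: 0% = mean of negative control wells and 100% = mean of positive control wells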
* hit, by the source's call; . = not tested or not shown.

MgrA DNA FP	Sa helicase inh	SMILES
.	-23	CC(Sc1ccc(Br)cc1)C(N)=O (stereo unspecified)
.	4	CCOc1ccc(C(CNC(=O)C(CC)c2ccccc2)N2CCOCC2)cc1OC (stereo unspecified)
-1.9	.	Cc1nc2ccc(NS(=O)(=O)c3ccccc3Cl)cc2o1
.	5	Cc1ccc(CNS(=O)(=O)c2c(C(=O)N3CCCC3)c(C)n(C)c2C)cc1
.	13	Cc1noc(C)c1COC(=O)/C=C/c1cn(Cc2ccccc2)nc1-c1cccs1
.	-4	CCOc1ccc(S(=O)(=O)N2CCC(C(=O)N/N=C/c3ccc(-c4ccc(F)cc4)o3)CC2)cc1
.	1	COc1ccc(CNC(=S)N2CCCC(C(F)(F)F)C2)cc1 (stereo unspecified)
.	7	Cc1cc(Sc2nnc3c(n2)[nH]c2ccccc23)n2c(nc3ccccc32)c1C#N
-2.0	0	CC(C)(C)OC(=O)N1CCC(c2nc3c(nnn3Cc3ccccc3Cl)c(=O)[nH]2)CC1
.	-167	CN1C=C(C(N)=O)C=CC1=C1C(=O)c2ccccc2C1=O
.	12	CCOC(=O)c1nc(NC(C)C)c2ccccc2n1
-0.6	.	COc1ccc(Nc2ncnc3c2nnn3Cc2ccccc2Cl)c(OC)c1
.	-31	CCC(Nc1ccc(Br)cc1)C(=O)N/N=C/c1cccnc1 (stereo unspecified)
-0.6	.	Cc1cccc(CSc2ncn[nH]2)c1
.	-3	C=CCn1c(COc2ccccc2F)nnc1SC1CCOC1=O (stereo unspecified)

3 compounds picked at random from the list so far:
MgrA DNA FP	Sa helicase inh	SMILES
.	-23	CC(Sc1ccc(Br)cc1)C(N)=O (stereo unspecified)
.	7	Cc1cc(Sc2nnc3c(n2)[nH]c2ccccc23)n2c(nc3ccccc32)c1C#N
-2.0	0	CC(C)(C)OC(=O)N1CCC(c2nc3c(nnn3Cc3ccccc3Cl)c(=O)[nH]2)CC1

Other entries follow:
MgrA DNA FP	Sa helicase inh	SMILES
1.0	4	CC(NC(=O)C1COc2ccccc2O1)C(=O)O (stereo unspecified)
.	13	COc1ccccc1/C(N)=N/O
.	-5	Cc1ccccc1Nc1nc(N)nc(COc2ccc(F)c(Cl)c2)n1
-0.6	.	O=C(NCCN1CCN(S(=O)(=O)c2ccc3ccccc3c2)CC1)C(=O)Nc1ccc(Cl)cc1
.	1	FC(F)Oc1ccccc1C=NCc1cn2ccccc2n1
3.3	3	CCOC(=O)c1cc(-c2ccccc2)n(-c2ccccc2C)n1
.	-137	CCOC(=O)c1sc(N)c(C#N)c1COC(=O)CSc1nnc(-c2ccco2)o1
.	-19	N#CCn1c(COC(=O)Cc2ccc3c(c2)OCCO3)nc2ccccc2c1=O
-1.6	5	N#CC1=C(N)C(C#N)(C#N)C2(C(=O)N(Cc3ccccc3)c3ccccc32)C2CCCC=C12 (stereo unspecified)
-1.0	.	CC(O)c1cc(-c2ccc(Cl)cc2Cl)no1 (stereo unspecified)
.	14	CCOC(=O)C1CCN(C(=O)COC(=O)/C=C/c2ccccc2)CC1
1.4	.	CSc1nnc(SC)n1CCNC(=O)Nc1cccc(Cl)c1
-1.4	18	CCOc1ccc(-n2c(SCc3ccccc3)nnc2-c2cccnc2)cc1
0.9	10	O=C(c1cc(-c2cccs2)on1)N1CCCc2ccccc21
1.0	8	Cc1ccc(NS(=O)(=O)c2ccc3c(c2)oc(=O)n3C(=O)Oc2ccccc2)cc1

MgrA DNA FP	Sa helicase inh	SMILES
1.1	-2	CCSc1nc(O)c(C(C)CC)c(=O)[nH]1 (stereo unspecified)
-1.2	7	Cn1nnnc1SCC(=O)OC1CCCCC1
0.6	.	Cc1nn(Cc2nnc(-c3ccccc3Cl)o2)c(C)c1Br
.	11	COC(=O)c1cccc(NC2=CC(C)(C)CC(=O)C2)c1
-1.7	.	Cc1c(S(=O)(=O)c2ccc(Cl)cc2)csc1C(=O)N(C)c1nnc(C(F)(F)F)s1
-1.7	-1	O=C(COc1ccc2oc3c(c2c1)CCCC3)Nc1cccnc1
-0.8	-7	O=C1c2ccccc2C(=O)N1Cc1ccc2[nH]c3c(c2c1)CCCC3
.	9	COc1ccc(C2NC(=O)NC3=C2C(=O)CC(C)(C)C3)cc1OC (stereo unspecified)
.	7	CCOc1ccc(NC(=O)CN2C(=O)C(CC)SC(CC)C2=O)cc1 (stereo unspecified)
1.8	.	CN(C)C=NC(=S)c1ccc(Cl)cc1
.	16	Cc1cc2nn(CN3CCOCC3)c(=S)n2c2ccccc12
5.8	.	N#Cc1ccc(-c2cccs2)nc1SCC(=O)c1cc2ccccc2oc1=O
6.1	-2	CCOC(=O)/C(C#N)=C1\CC2CCC1(C)C2(C)C (stereo unspecified)
.	9	CCCOC(=O)c1sc2nc3c(c(-c4cccs4)c2c1N)CCC3
.	-1	CCOc1ccccc1NC(=O)C1CCN(C(=O)c2ccccc2)CC1

MgrA DNA FP	Sa helicase inh	SMILES
.	-13	O=C(c1ccc(Cl)cc1)N(c1ccccn1)c1ccccn1
6.5	16	S=C(NCc1ccco1)N1CCC2(CC1)OCCO2
3.4	.	CCOC(=O)C1=C(C)N=c2s/c(=C\c3ccc(OC(C)=O)c(OC)c3)c(=O)n2C1c1ccc(OC)c(OC)c1 (stereo unspecified)
.	-17	Cc1ccccc1OCC(=O)N(Cc1ccco1)Cc1ccco1
-1.4	.	NS(=O)(=O)c1ccc2c(c1)C1C=CCC1C(c1ccc(Br)cc1)N2 (stereo unspecified)
.	11	N#Cc1ccc(CNC(=O)Nc2ccccc2)cc1
.	-7	Cc1ccc(NC(=O)CSCc2c(C)noc2C)cc1C
.	20	COC(=O)c1cc(Cl)nc2ccccc12
-0.9	.	O=C(Nc1ccc(NC(=O)c2ccco2)cc1)c1ccc2c(c1)OCCO2
.	-9	CCOC(=O)c1cc(NC(=O)/C=C2/N(C)c3ccccc3C2(C)C)c(C)nc1C
.	-9	CNC(=O)N(C1=NCC(C)(C)S1)c1ccc(F)c(Cl)c1
-0.6	.	COC(=O)c1cccc(CS(C)(=O)=O)c1
.	-6	C=CCN1C(=O)C(Cc2ccc(OC)cc2)S/C1=N/N=C/c1ccco1 (stereo unspecified)
-0.8	6	Nc1nc(OC(C(F)(F)F)C(F)(F)F)nc(OC(C(F)(F)F)C(F)(F)F)n1
-0.2	10	COc1cccc(N2C(=O)CN=C2Nc2nc(C)cc(C)n2)c1

Some of these compounds in order of the MgrA DNA FP value, smallest number first:
MgrA DNA FP	Sa helicase inh	SMILES
-0.8	6	Nc1nc(OC(C(F)(F)F)C(F)(F)F)nc(OC(C(F)(F)F)C(F)(F)F)n1
-0.2	10	COc1cccc(N2C(=O)CN=C2Nc2nc(C)cc(C)n2)c1
6.5	16	S=C(NCc1ccco1)N1CCC2(CC1)OCCO2

Other entries
MgrA DNA FP	Sa helicase inh	SMILES
-1.8	-3	CC(=O)Nc1ccccc1OC(=O)N1CCOCC1
.	30	Cc1cc(=O)n2nc(N3CCC(C(=O)NC(C)C)CC3)sc2n1
.	7	CCN1CCc2nc3ccccc3c(C(=O)Nc3ccc(F)cc3)c2C1
-0.9	-4	Cc1cc(OCC[N+]2(C)CCCCC2)nc2ccccc12
0.8	7	O=C(c1cc(-c2ccc(F)cc2)on1)N1CCCc2ccccc21
7.4	11	Cc1ccc(O)c2c1NCCC2
.	26	O=C(NCc1ccccc1)/C(=N\O)c1ccccc1
3.0	-12	CCC(=O)Oc1ccc(Br)cc1/C=C1\Sc2ccccc2C1=O
-1.9	6	Cc1ccccc1C(=O)NC#N
.	-18	CCCCCn1c(=O)[nH]c2cc(C(=O)Nc3cc(OC)c(OC)c(OC)c3)ccc2c1=O
-0.4	12	CC(C)(C)N1C(=O)c2ccc(C(=O)Nc3nccs3)cc2C1=O
1.0	.	CN(CCc1ccc(Cl)c(Cl)c1)CC(O)COc1ccc(NS(C)(=O)=O)cc1 (stereo unspecified)
.	-22	COCC(=O)Nc1cc(C)c2c(=O)oc3ccccc3c2n1
3.4	5	O=C(Cc1ccccc1)N/N=C/c1ccccc1F
-2.1	-15	Cc1ccsc1C(=O)OC(C(=O)c1c[nH]c2ccccc12)c1ccccc1 (stereo unspecified)

MgrA DNA FP	Sa helicase inh	SMILES
.	7	O=C(O)c1ccccc1N(Cc1ccccc1)C(=O)c1ccccc1O
.	19	S=c1nc2[nH]c3cc4c(cc3c2n[nH]1)OCCO4
0.3	-2	O=C1c2cccnc2C(=O)N1Cc1ccc(S(=O)(=O)NC2CCCC2)cc1
-0.7	.	Cc1cc(Cl)ccc1NC(=O)/C=N/O
-2.2	3	COCCSc1nnc(NC(=O)C2CC(=O)N(C(C)(C)C)C2)s1 (stereo unspecified)
.	4	Cc1ccccc1-c1noc(-c2ccc(OC(=O)c3ccccc3)cc2)n1
-1.9	9	O=C1NC(Nc2ccccn2)(C(F)(F)F)C(=O)N1c1ccc(F)cc1 (stereo unspecified)
.	-16	O=C(/C=C/c1cccs1)Nc1nnc(-c2ccccc2)o1
.	-12	CC(=O)Nc1ccc(NC(=O)CNC(=O)COc2ccccc2)cc1
.	4	Cc1ccc(-n2ncc3c(NCc4ccco4)ncnc32)cc1
1.4	7	OCC1CC(O)C(O)C(Oc2ccc3ccccc3c2)O1 (stereo unspecified)
-0.3	5	Cc1ccc(C(=O)N(C)c2ccccc2)cc1Cl
.	-5	CCOc1ccc(NC(=O)COC(=O)Cn2cnnn2)cc1OCC
-1.5	.	Cc1cc(S(=O)(=O)Nc2ccccc2C(=O)NCC2CC2)c(Cl)cc1Cl
.	28	CN(C)NS(=O)(=O)C1CCS(=O)(=O)C1 (stereo unspecified)

Some of the entries so far, as labelled records.
Structure: S=c1nc2[nH]c3cc4c(cc3c2n[nH]1)OCCO4
  MgrA DNA FP = .; Sa helicase inh = 19

Structure: CC(=O)Nc1ccc(NC(=O)CNC(=O)COc2ccccc2)cc1
  MgrA DNA FP = .; Sa helicase inh = -12

Structure: Cc1ccc(-n2ncc3c(NCc4ccco4)ncnc32)cc1
  MgrA DNA FP = .; Sa helicase inh = 4

Structure: O=C(O)c1ccccc1N(Cc1ccccc1)C(=O)c1ccccc1O
  MgrA DNA FP = .; Sa helicase inh = 7

More entries
MgrA DNA FP	Sa helicase inh	SMILES
-3.3	.	CC(=O)N[C@H]1[C@@H](OCc2ccccc2)O[C@@H]2COC(c3ccccc3)O[C@H]2[C@@H]1O[C@H](C)C(=O)O (stereo partly specified)
-1.8	.	COC(=O)c1cc(/C=C2\C(=O)Nc3ccccc32)cn1C
.	8	NC(=O)N/N=C1\CCCc2ccccc21
.	3	CCc1nn(CC(=O)N2CCN(c3cc(Cl)ccc3C)CC2)c(=O)c2cc3occc3n12
.	-10	O=C(O)c1ccc(N2CCCc3ccccc32)s1
-0.3	10	O=C(Nc1ccccc1C(=O)N1CCOCC1)C1COc2ccccc2O1 (stereo unspecified)
2.1	11	CCN(CC)c1ccc(NC(=O)c2cc(=O)c3ccccc3o2)cc1
.	-4	COC(=O)COc1ccc2c(=O)c(-c3csc(C)n3)coc2c1
.	-6	Cc1occc1C(=O)N/N=C/c1ccc(C(=O)O)cc1
7.8	-4	CC(C)N1CC=C2C(C1)C(c1ccccc1)C(C#N)=C(N)C2(C#N)C#N (stereo unspecified)
2.1	4	CCC(CC)C(=O)N1CCc2ccccc21
-1.6	4	C=CCNC(=O)/C=C/c1ccc(Cl)c(Cl)c1
0.7	.	Cc1cc(C)n(-c2nc3nonc3nc2Nc2ccccc2C)n1
.	-104	Cc1nc(N2CCCC2)sc1C(=O)c1oc2ccccc2c1C
0.5	-11	CCOC(=O)C(O)(c1ccc2nc(N)sc2c1)C(F)(F)F (stereo unspecified)

MgrA DNA FP	Sa helicase inh	SMILES
-0.7	.	CCO[C@@H]1O[C@H](COC(C)=O)[C@@H](OC(C)=O)[C@H](OC(C)=O)[C@H]1OC(C)=O
6.3	10	CC(C)NC(=O)C[n+]1csc2ccccc21
3.9	8	Clc1ccc(C2=Nc3cccc4cccc(c34)N2)cc1
1.9	.	O=c1[nH]c(O)c(C=NCc2cccs2)c(=O)[nH]1
0.4	-5	COc1cccc(C(=O)N2CCCC(C)C2)c1 (stereo unspecified)
1.1	.	Clc1ccc(-c2cc(C3CCNCC3)[nH]n2)cc1
-2.2	2	COc1cccc(N2CCN(C(=O)c3ccc(/C=C4\Oc5ccccc5N(C)C4=O)cc3)CC2)c1
-0.5	.	COc1cc(C#N)c(OC)cc1Cl
.	28	COc1ccc(CCCc2nnc(SCC(=O)Nc3ccccc3)o2)cc1C
.	14	CN(C)/C=N/NC(=O)c1nc(-c2cccc(-n3cccc3)c2)no1
-1.0	8	CCCn1c(=S)[nH]c2cc(C(=O)NCc3ccccc3)ccc2c1=O
-12	2	O=C(CCN1CCCCC1)c1ccccc1
0.2	.	Cc1ccc(/C=C2\SC(=S)N(CCC(=O)Nc3ccc(S(=O)(=O)Nc4nccs4)cc3)C2=O)cc1
.	4	COc1ccc(NC(=O)c2cncc(NS(=O)(=O)c3ccc(F)cc3)c2)cc1
-2.4	.	COc1ccc(NC(C)=O)c([N+](=O)[O-])c1

MgrA DNA FP	Sa helicase inh	SMILES
.	7	Cc1ccc2nc(Cn3c(=O)c(N4CCOCC4)nc4ccccc43)cc(=O)n2c1
.	7	COc1cccc(N2CCN(CC(=O)NCC(F)(F)F)CC2)c1
.	4	Cc1ccccc1C1NC(=S)NC2=C1C(=O)CC(C)(C)C2 (stereo unspecified)
3.0	10	CC1CN(Cn2[nH]c(=O)ccc2=O)CC(C)O1 (stereo unspecified)
3.4	.	CSc1nc2ccc(NC(=O)c3c(-c4ccccc4)noc3C)cc2s1
.	13	Cc1cc(F)ccc1S(=O)(=O)N(CC(=O)N1CCOCC1)CC(=O)N1CCOCC1
.	-11	COC(=O)c1ccc2c(=O)n3nc(NCCc4ccccc4)sc3nc2c1
-0.2	19	CC(C)CNC(=O)c1cccc(NC(=O)C(C)C)c1
-0.1	.	CSc1sc(C#N)c(C)c1-c1ccn(S(=O)(=O)c2ccc(Cl)cc2)n1
.	17	CC(=O)Nc1ccc(NC(=O)C(C)OC(=O)c2cc(-c3ccco3)nc3ccccc23)cc1 (stereo unspecified)
.	19	O=C(Nc1cccnc1)c1ccc(NC(=O)C2OCCc3ccccc32)cc1 (stereo unspecified)

These rows are one share of the data; rates above refer to the full screens.
